Screening data: PubChem BioAssay, National Center for Advancing Translational Sciences (NCATS)
hNpr1 antagonist – Natriuretic polypeptide receptor (hNpr1) antagonism - Primary qHTS; HEK293 hNpr1 GloSensor cGMP, ANP-stimulated luminescence; AID 1347048, 2019; Atrial natriuretic peptide receptor 1 (Homo sapiens), P16066; Potency, µM (series often up to 46.3 µM), inactives show at the top dose activity change, negative = inhibition, usual class: inhibitors; 76,000 compounds, 1.6% hits; active = well fitted inhibition curve with a large enough effect; inconclusive = small, poorly fitted or top-dose-only effect; inactive = no such curve, though single readings can be large or run the other way;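 further: nearly all actives have a fitted effect of over 60% in size; nearly all hits also lower the signal before the agonist is added; a reference antagonist and vehicle were the controls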
Target sequence (P16066 whole entry, looked up): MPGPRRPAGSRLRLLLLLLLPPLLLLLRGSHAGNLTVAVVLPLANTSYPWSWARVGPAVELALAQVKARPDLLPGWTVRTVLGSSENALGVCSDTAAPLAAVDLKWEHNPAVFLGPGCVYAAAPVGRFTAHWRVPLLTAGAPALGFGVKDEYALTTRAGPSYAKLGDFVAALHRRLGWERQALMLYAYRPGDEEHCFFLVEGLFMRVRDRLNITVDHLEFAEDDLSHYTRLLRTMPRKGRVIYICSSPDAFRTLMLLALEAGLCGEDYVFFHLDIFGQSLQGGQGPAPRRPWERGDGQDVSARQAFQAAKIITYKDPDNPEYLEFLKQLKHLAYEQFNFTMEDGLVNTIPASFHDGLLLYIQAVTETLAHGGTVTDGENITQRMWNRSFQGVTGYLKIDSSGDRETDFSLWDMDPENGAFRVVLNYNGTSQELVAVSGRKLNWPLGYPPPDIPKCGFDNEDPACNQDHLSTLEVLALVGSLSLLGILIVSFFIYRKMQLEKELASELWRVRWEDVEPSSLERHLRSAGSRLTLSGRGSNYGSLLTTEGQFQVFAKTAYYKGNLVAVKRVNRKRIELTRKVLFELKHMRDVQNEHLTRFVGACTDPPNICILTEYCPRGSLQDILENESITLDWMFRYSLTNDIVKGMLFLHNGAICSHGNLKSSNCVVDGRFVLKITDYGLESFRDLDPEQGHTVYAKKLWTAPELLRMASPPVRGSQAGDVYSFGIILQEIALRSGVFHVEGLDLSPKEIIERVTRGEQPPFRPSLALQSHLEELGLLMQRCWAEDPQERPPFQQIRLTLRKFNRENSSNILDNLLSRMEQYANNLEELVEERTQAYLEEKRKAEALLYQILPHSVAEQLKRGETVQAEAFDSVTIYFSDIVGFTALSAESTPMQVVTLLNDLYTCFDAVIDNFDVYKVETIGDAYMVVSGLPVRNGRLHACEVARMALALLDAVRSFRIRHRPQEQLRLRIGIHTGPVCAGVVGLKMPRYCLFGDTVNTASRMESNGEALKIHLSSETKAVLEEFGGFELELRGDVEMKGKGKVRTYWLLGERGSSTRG
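HEK293 cells stably expressing human Npr1 and cGMP GloSensor pGS-40F, loaded 2 h with 2% GloSensor reagent, given compound 30 min at room temperature. Luminescence read before and 20 min after 0.1 nM hNppA.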
Starred values were filed as active, the others as inactive; u = inconclusive; [ ] = remark or other dose. On the % scale 0 is the no-effect control and ±100 the full control effect; potency means the concentration at half of the fitted maximal effect. An excerpt. The share of hits here may be higher or lower than overall.

hNpr1 antagonist	SMILES
-16%	CN(Cc1ccccc1)C(=O)Cn1c2c(c(=O)n1Cc1ccccc1)CCN(Cc1ccccc1)C2
-10%	O=C(Cc1cccc(F)c1)NCC(=O)N1CCCCCCNC(=O)CC1c1ccccc1 (stereo not drawn)
3%	CCOC(=O)C1CCN(C(=O)C2COC3(CCC(C)CC3)N2C(=O)c2ccccc2F)CC1 (stereo not drawn)
u	O=C(NC1C[C@H]2CC[C@@H](C1)N2C(=O)Cc1ccccc1Cl)c1ccncc1 (stereo partly drawn)
2%	Cc1ccnn1CCC(=O)Nc1nn(C)c2cccc(N3CCOCC3)c12
4%	Cc1ccc(-c2cc(N3CCCN(C(=O)Cc4ccc(F)cc4)CC3)n[nH]2)cc1C
u	COc1ccc(C(=O)NCCn2ccn3nc(-c4ccc(C)cc4C)cc3c2=O)cc1F
1%	COc1ncccc1C(=O)N1Cc2cnn(Cc3ccc(F)cc3)c2C1
-11%	O=C(NCCN1CCOCC1)c1ccc(-c2ccc(N3CCCCC3)nc2)cc1
-2%	CC(=O)N1CCN(C(=O)[C@@]23CCCC[C@H]2N(CCC(C)C)C(=O)CC3)CC1
0%	CCOC(=O)C1(Cc2ccccc2F)CCCN(C(=O)c2c(C)nc3sccn23)C1 (stereo not drawn)
6%	CCCCNC(=O)[C@@H]1CCCC[C@@H]1C(=O)NCc1c(C)nn(CC)c1C
-19%	CC1Oc2ccc(NC(=O)c3ccccc3F)cc2CN(CCOc2ccccc2)C1=O (stereo not drawn)
-4%	O=C(CN1CCCCCCC1)N1CCn2cncc2C1
6%	Cc1cnc(C)c(N2CCC(C(=O)O)(n3ccc(-c4ccco4)n3)CC2)n1
-24%	COc1ccc(C(=O)N2CCN3C(=O)c4cc(-c5ccc(Cl)cc5)ccc4NC(=O)[C@@H]3C2)cc1
-26%[70.6 µM]	Fc1ccc(CNC[C@H]2Cn3c(-c4ccc(F)cc4)cnc3CO2)cc1
-12%	COc1ccc(-c2noc(CN3CCCC(C(=O)c4cccnc4)C3)n2)c(OC)c1OC (stereo not drawn)
0%	CCC(=O)N1CCC(Cc2ncc(C)n2CCOC)C1 (stereo not drawn)
2%	COc1ccc(C(=O)N2CCCC(n3cc(-c4nc(C5CC5)no4)nn3)C2)cc1 (stereo not drawn)
1%	O=C(CN1C(=O)CNC1=O)NCCc1noc(-c2ccccc2)n1
-21%	COc1ccc(CN2CC3(CCN(C(=O)c4ccc(F)c(Cl)c4)CC3)C2=O)cc1
-14%	CSCCC(=O)N1CCc2[nH]nc(-c3ccc(C(F)(F)F)cc3)c2C1
-3%	CN1c2cc(C(=O)Nc3cccc(C(F)(F)F)c3)ccc2C(=O)N2CCCC21 (stereo not drawn)
4%	CNC(=O)c1ccc(Cl)c(NC(=O)N[C@H]2CN(C(C)C)C[C@@H]2OC)c1
-1%[70.6 µM]	CC(=O)N1CC[C@H](c2nc3cc(C)ccc3o2)C1
-4%	O=C(c1ccccc1)N1CCCN(Cc2ccc3c(c2)OCO3)c2ccccc21
-7%	C[C@]1(CO)C2CC[C@@H](O)[C@@H](CC(=O)N3CCC[C@H]3CO)[C@]2(C)CC[C@H]1OC(=O)Nc1cccc(C(F)(F)F)c1 (stereo partly drawn)
-2%	COc1ccc(C(=O)N2CC3(Cc4ccccc4N([S+](C)(=O)[O-])C3)C2)cc1
-13%	Cn1cc(CC(=O)N2CCCc3ncc(C(=O)NCc4ccc(F)cc4)cc32)c2ccccc21
u	O=C(NCc1ccc(-c2cnc3c(Oc4ccccc4)nccn23)cc1)c1cccc(O)c1
-13%	CCc1ccc(C(=O)N2CCN(c3cc(-c4ccc(OC)cc4)[nH]n3)CC2)cc1
-1%	Fc1cc(F)cc(Cc2nc3nccc(-c4ccccc4)n3n2)c1
6%[70.6 µM]	CC(=O)N[C@@H]1C=C(C(=O)NCCC(N)=O)C[C@@H](O)[C@@H]1O
-17%	Cc1ccc(CN2CCC3(CC2)OC(=O)N(Cc2ccc(O)cc2)C3(C)c2ccccc2)o1 (stereo not drawn)
3%[70.6 µM]	COc1ccc(-c2cn(C)c(=O)n3cc(CN4CC[S+](=O)([O-])CC4)nc23)cc1OC
7%	O=C([C@@H]1C[C@H](Oc2cccnc2)CN1C(=O)Cn1c(=O)oc2ccccc21)N1CCCC1
4%[70.6 µM]	CC(C)C[C@@H]1N[C@H](C(=O)N2CCOCC2)Cc2cn(Cc3nccn3C)c3cccc1c23
-9%	Cc1noc(C2CC3(CCN(C(=O)CCc4ccccc4)CC3)CN2C)n1 (stereo not drawn)
2%	CCOc1ccc(CC(=O)N2CCC(C3CCNC3)CC2)cc1OCC (stereo not drawn)
-9%	CNC(=O)[C@@H]1CN(C(=O)c2ccc(C)cc2C)C[C@H]1COC
-25%	COc1cc(NC(=O)c2cc3c(N4CCSCC4)nc(C)cn3n2)cc(OC)c1OC
1%	CC(=O)N1CCc2[nH]cnc2C12CCN(C(=O)c1ccc(C)c(C)c1)CC2
-1%	Cc1ccc(-c2[nH]ncc2CN2C[C@@H](CO)[C@H](c3ccccn3)C2)cc1
-2%	COC(=O)c1cccc(NC(=O)N2CCc3c(nc4cc(-c5ccccc5)[nH]n4c3=O)C2)c1
-4%[70.6 µM]	c1ccc2c(-c3nc4ccncc4[nH]3)c[nH]c2c1
1%	CN(C)CCNC(=O)[C@H]1C[C@@](C)(C(=O)O)N(C)[C@H]1c1ccc(Cl)cc1
-28%	COc1ccc2ccc(OCc3nc(C(=O)N(C)CC4CCCO4)co3)cc2c1 (stereo not drawn)
4%	COc1ccc(-c2ccc3nnc(CNC(=O)c4ccc(OC)cc4C)n3n2)cc1
1%	CCN1CCC(N2C[C@@H](COC)[C@H](c3nc(C)no3)C2)CC1

Next part.
hNpr1 antagonist	SMILES
-3%	COc1ccc(Cn2c(C3CCN(C(=O)c4c(F)cccc4F)CC3)n[nH]c2=O)cc1
1%	COc1ccc(C(=O)N2C(C(=O)NC3CC3)COC23CCN(C(=O)c2ccccc2C)CC3)cc1 (stereo not drawn)
5%	O=C1CCN(S(=O)(=O)c2ccccc2)CCCN(C(=O)C2(c3ccccc3)CC2)CCN1
0%	O=C1CCN(C(=O)NC2CCCCC2)CCCC(c2nc(-c3cccnc3)no2)CCN1 (stereo not drawn)
-15%	O=C(Cn1ccn2nc(-c3ccc(F)cc3)c(CO)c2c1=O)Nc1ccc(F)c(F)c1
-2%[70.6 µM]	C[C@H](O)c1onc(-c2ccccc2)c1C(=O)NC1CCC1
u	Cc1ccc(C)c(-c2ccc(C(=O)NCCCn3ccnc3C(C)C)cn2)c1
10µM*	COc1ccc(C(=O)Nc2ccc(-c3noc([C@@H]4CCCN4Cc4ccc(F)c(F)c4)n3)cn2)cc1
4%[70.6 µM]	O=C(NC[C@H]1OC[C@@H](NCc2ccccc2O)[C@@H]1O)C1CCCC1
1%	O=C(CCC[C@@H]1[C@H]2CCCN3CCC[C@@H](CN1C(=O)c1ccco1)[C@@H]23)NCC1CC1
3%	O=C(Nc1ccc(Cl)cc1)N1CCC(c2nn(-c3ccc(Cl)cc3)c(=O)[nH]2)CC1
-2%	O=C(NC[C@H]1O[C@@H](CO)[C@@H](O)[C@H]1N1CCN(c2cccc(C(F)(F)F)c2)CC1)Nc1ccc(F)cc1F
-4%	O=C(c1cccc(OC(F)(F)F)c1)N1CCC2(CC1)CC(O)CCO2 (stereo not drawn)
0%[70.6 µM]	CN(Cc1ccc(F)cc1)C(=O)Nc1ccccc1
-11%	COc1cccc(NC(=O)N2CCOC(CN(CC(C)C)C(=O)c3cccc(OC)c3)C2)c1 (stereo not drawn)
-6%	O=C1NCN(Cc2ccc(Cl)cc2)C12CCN(CC1CCCCC1)CC2
-1%	Cn1c(C(=O)O)cc2c1CCN(Cc1ccc(F)cc1)C2
1%	CNC(=O)[C@@H](c1ccccc1OC)N1CCC[C@H]1C(=O)N1CCN(C)CC1
-15%	Cc1ccc(C2=NC3(CCN(C(=O)c4cc(F)ccc4Cl)CC3)ON2)cc1
10%	Cc1ccc(C(=O)N2CCC(c3nc(C4CCOCC4)no3)CC2)cn1
-18%	COc1cccc(C(=O)N2CCCC3(C2)NC(=O)N(Cc2ccc(C)cc2)C3=O)c1OC (stereo not drawn)
-3%	O=C(NCCC1=CCCCC1)c1ccc(N2CC3CC(C2)[C@H]2CCCC(=O)N2C3)nc1 (stereo partly drawn)
u	O=C(C1CCCCCC1)N1CCC(n2cc(C3CCCCC3)nn2)CC1
-16%	Cc1ccc(CNC[C@H]2O[C@H](Cc3cc(CN(C)Cc4ccccc4)on3)CC[C@@H]2O)cc1
-3%[70.6 µM]	CC(C)C[C@@H]1N[C@H](C(=O)NCC2CC2)Cc2cn(Cc3nccn3C)c3cccc1c23
0%	CCc1cccc(NC(=O)N(C)CC2CCOCC2)c1
1%	CNCC(=O)N1CCC(n2nccc2NC(=O)Nc2ccccc2OC)CC1
u	Cc1ccccc1CN1CCOc2cc([S+](=O)([O-])Nc3cccnc3)ccc2C1
1%	COc1ccc(F)cc1S(=O)(=O)N1CCCC(Cn2c(C3CC3)nc3cccnc32)C1 (stereo not drawn)
-2%[70.6 µM]	C=CCNC(=O)N1CCC(O)(c2csc(CN(CC)CC)n2)CC1
1%	CC(C)c1nnc(C2CN(C(=O)COc3ccc(Cl)cc3)CC23CCOCC3)o1 (stereo not drawn)
-1%	N#Cc1cccc(S(=O)(=O)N[C@@H]2CCOC[C@H]2OCc2cscn2)c1
u	O=C1COc2ccc(-c3cccc(O)c3)nc2CN1CCOc1ccccc1
19%[70.6 µM]	Cc1ccc(CN(C)Cc2ccc(-c3ccccc3)cc2)cc1
-2%	CCC(=O)N1CCc2sc(C(=O)NCc3ccc4c(c3)OCO4)cc2C1
-2%	CN1CC2(CCN(C(=O)Cc3c[nH]c4ccccc34)CC2)CC1C(=O)N1CCOCC1 (stereo not drawn)
-1%	CCOc1cc(=O)n2c(c1C(=O)Nc1cc(OC)ccc1OC)CCCC2
4%	CCO[C@H]1CN(C(=O)C(C)(C)n2cccc2)C[C@@H]1O
1%	NC(=O)C1(c2nc(C3CCOC3)nn2-c2cccc3cccnc23)CC1 (stereo not drawn)
-2%	Cc1cnc(C(=O)NC2C[C@H]3CC[C@@H](C2)N3C(=O)c2cnc(C)cn2)cn1 (stereo partly drawn)
-6%	Cc1ccc(-c2cc3c(=O)n(CCNC(=O)c4cccc(Cl)c4)ccn3n2)cc1C
u	Cc1ccc(-c2cn3c(n2)CO[C@@H](CNCc2ccc(-c4ccccn4)cc2)C3)cc1
-7%	Cc1ccc(-c2nnc(C3CN(C(=O)c4cccc(F)c4)CC34CCOCC4)o2)cc1 (stereo not drawn)
-1%[70.6 µM]	COc1cccc(Nc2cc(CN3CCC(C)(NC(C)=O)CC3)cc(OC)c2)c1
-7%	CN1CCN(c2nc3c(c(=O)[nH]2)CCN(Cc2cn[nH]c2-c2ccccc2)CC3)CC1
u	COc1cccc(C2C(C(=O)Nc3ccccc3)=C(C)N=C3SC=C(CC(=O)NCC(C)C)N32)c1 (stereo not drawn)
2µM*	Cc1cc2c(N3CCC(NCc4noc(C5CCC5)n4)CC3)ncnc2s1
-12%	COCc1ncc(C)n1CCNC(=O)c1cc(-c2ccc(C)cc2)n[nH]1
0%	CC(=O)Nc1ccc(CN(CCN2CCCCC2)CC2CCCN(C3CCCC3)C2)cc1 (stereo not drawn)
4%	CN(C)C[C@@H]1CN(c2ccncn2)C[C@H]1NC(=O)c1ccc2ccccc2n1

Other results.
hNpr1 antagonist	SMILES
-8%	CN1CCC(N2CCN(C(=O)c3cc4cn(C5CC5)cc4s3)CC2)CC1
-10%	O=C(c1ccccc1)N1CCC(c2nc(C3CCOCC3)no2)CC1
-17%	Cc1cc(C(=O)N2CCC3(CCCN(C(C)C)C3=O)C2)c(-c2ccccc2)o1 (stereo not drawn)
4%	COCC(=O)N(C1CCOCC1)C1CCN(C(=O)c2cc(F)ccc2Cl)CC1
-1%	COCc1nc(C2CCN(C(=O)Cc3c[nH]c4ccccc34)C2)no1 (stereo not drawn)
2%[70.6 µM]	CC(=O)N1CCN(c2ncccc2-c2cc(-c3ccccc3)nc3c(C)noc23)CC1
-2%	Oc1ccc(-c2nc(C3CC3)nc3c2CCN(Cc2ccc(F)cc2)CC3)cc1
8%	C[C@H]1[C@@H]2[C@@H](O)C([C@H](C)C(=O)N3CCCC3)CC[C@@]2(C)CC[C@@H]1NC(=O)COc1ccccc1 (stereo partly drawn)
